High-throughput results: PubChem BioAssay, National Center for Advancing Translational Sciences (NCATS)
miR-21 FLuc – miR-21 reporter, rising signal. HeLa miR-21 FLuc reporter, luciferase, 48 h. Potency, µM (highest dose often 38.3 µM), for the others: at the highest dose reporter change, positive = more light. 340,000 tested, under 10 active. AID 2288; active = well fitted rising curve with a large enough effect; inconclusive = small, poorly fitted or top-dose-only effect; inactive = no such curve, though single readings can be large or run the other way;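 also: % of control where 0% means no effect; miR-21 action dims this reporter so a rising signal means less miR-21 action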
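HeLa cells endogenously expressing miR-21, stably carrying CMV-driven firefly luciferase with a downstream miR-21 binding site, 2000 cells/well. Titrations up to approximately 40 uM, 48 hours; luciferase luminescence read.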
Rango-impB inh – prevents formation of the Rango-importin beta complex; Q14974; Rango CFP/YFP FRET sensor + importin beta, 45 min; Potency, µM (series often up to 92.2 µM), for the others: top-dose inhibition of complex formation; hit rate 0.031% among 340,000; AID 540263; active = rising FRET ratio curve, often small or poorly fitted; inconclusive = mostly compound fluorescence or quenching in the first reads; inactive = flat curves in all reads;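 also: potency is read from the fitted curve at half-maximal effect; 0% = DMSO wells and 100% = buffer wells lacking importin beta; nearly all actives have a fitted effect of over 15% in size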
Target sequence (Q14974 whole entry, looked up): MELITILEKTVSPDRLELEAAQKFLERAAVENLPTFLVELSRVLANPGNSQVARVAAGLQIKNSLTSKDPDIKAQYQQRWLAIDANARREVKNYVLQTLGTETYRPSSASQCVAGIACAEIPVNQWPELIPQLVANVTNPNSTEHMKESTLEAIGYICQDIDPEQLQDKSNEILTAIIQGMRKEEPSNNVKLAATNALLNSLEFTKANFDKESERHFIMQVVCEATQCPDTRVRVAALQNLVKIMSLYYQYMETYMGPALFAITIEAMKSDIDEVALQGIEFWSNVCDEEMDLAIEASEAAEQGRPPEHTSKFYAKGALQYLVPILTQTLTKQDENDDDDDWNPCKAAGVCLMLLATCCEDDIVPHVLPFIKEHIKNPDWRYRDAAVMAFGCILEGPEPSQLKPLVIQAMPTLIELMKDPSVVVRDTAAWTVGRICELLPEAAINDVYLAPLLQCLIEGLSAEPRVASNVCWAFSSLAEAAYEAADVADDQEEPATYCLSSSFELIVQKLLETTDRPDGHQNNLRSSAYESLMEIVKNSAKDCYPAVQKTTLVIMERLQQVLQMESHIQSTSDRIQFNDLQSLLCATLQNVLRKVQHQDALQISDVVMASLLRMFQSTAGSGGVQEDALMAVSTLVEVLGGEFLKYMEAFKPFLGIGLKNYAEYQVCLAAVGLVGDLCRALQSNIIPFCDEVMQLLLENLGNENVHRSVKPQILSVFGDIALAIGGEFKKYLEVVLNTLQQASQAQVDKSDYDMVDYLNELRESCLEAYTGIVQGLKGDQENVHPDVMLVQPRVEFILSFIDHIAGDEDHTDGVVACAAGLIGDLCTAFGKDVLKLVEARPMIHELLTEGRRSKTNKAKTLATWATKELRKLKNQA
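FRET biosensor Rango (snurportin 1 IBB between N-terminal EYFP and C-terminal Cerulean), 50 nM in PBS/1 mM DTT/0.02% Tween-20/0.1% BSA, preincubated 5 min RT with compound; 0.125 microM importin beta added, 45 min RT, CFP/YFP FRET ratio read.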
GLA inh pH 4.5 – inhibitors of human alpha-galactosidase A at pH 4.5; 230,000 tested, under 10 active; purified enzyme, 4-MU-alpha-Gal fluorescence, pH 4.5; AID 1467; activity change, negative = inhibition, % at 105 µM; inconclusive = small, poorly fitted or top-dose-only inhibition, or a rising curve; inactive = flat fitted curve, though single readings scatter; no compound was filed as active;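 also: 0% = full activity with enzyme and -100% = basal without enzyme; dose as in the result columns while the protocol names 77 µM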
Rango release inh – inhibitors of RanGTP-induced Rango-importin beta complex dissociation; O95149+P62826; Biochemical FRET Rango-importin beta, RanGTP-induced dissociation; Potency, µM (series often up to 46.1 µM), for the others: at the top dose activity change, negative = inhibition; hit rate 0.071% among 340,000; active means falling FRET ratio curve, often poorly fitted, with flat reads before Ran was added; inconclusive means other falling curves, or compound fluorescence or quenching; inactive means flat or rising ratio curve;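 also: potency is read from the fitted curve at half-maximal effect; % of control where 0% means no effect; nearly all actives have a fitted effect of over 45% in size; -100% = wells without RanGTP and RCC1; the record marks most hits as doubtful in a second field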
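Recombinant Rango FRET biosensor (EYFP–snurportin 1 IBB–cerulean CFP10) at 0.1 uM premixed with 0.25 uM importin beta in PBS, 1 mM DTT, 0.02% Tween-20, 0.1% BSA. Compound added 5 min; RanGTP-RCC1 (0.6 uM Ran, 2 mM GTP, 0.2 uM RCC1) then triggers release, read at 45 min.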
An asterisk follows results filed as active; ? = inconclusive; . = no result given; & = joins results of further samples; [ ] = another dose, or the depositor's remark. Not all compounds are listed (hit frequency here may not be typical).

Below each SMILES: miR-21 FLuc	Rango-impB inh	GLA inh pH 4.5	Rango release inh
1) CC(C)CC1(C)NC(=O)N(CC(=O)Nc2ccc3c(c2)CCC3)C1=O (centres undefined)
→ -3.1%	6.1%	5.3	19.8%
2) CCCOc1ccc(C(CC(=O)O)NC(=O)c2sc3ccccc3c2Cl)cc1 (centres undefined)
→ -13.5%	-0.6%	-13.3[21.1 µM]	-3.6%
3) Nc1ccc2c(c1)OC1(CCCCC1)O2
→ -9.7%	4.4%	1.8	11.0%
4) COc1ccc(-c2noc(Cc3ccc(Cl)cc3)n2)cc1OC
→ -26.6%	-1.0%	7.8	-0.1%
5) CC(=O)Nc1c(Cl)c2c(c(Cl)c1Br)-c1ccc(Cl)cc1C2
→ .	2.3%	.	-5.3%
6) COC(=O)c1sc(=S)n(-c2cc(F)ccc2F)c1N
→ -11.5%	-5.7%	-14.4	20.1%
7) Cc1cccn2cc(CSc3nnc(Nc4ccc(C(C)C)cc4)s3)nc12
→ -19.1%	0.3%	-1.6	4.0%
8) Cc1cccc(NC(=O)C2(c3ccccc3)CC2(Cl)Cl)c1 (centres undefined)
→ 10.6%	-1.8%	7.0	12.8%
9) CC(=O)/C(C#N)=C1\NC(=O)C(Cc2ccc(C)c(Cl)c2)S1 (centres undefined)
→ 20.8%	?	6.1	-12.4%
10) CC1(C)C(=O)C2(CCCCC2)C(=O)OC1c1ccc(O)cc1 (centres undefined)
→ -7.9%	-0.3%	-4.6	-0.3%
11) O=C(Nc1nnc(COc2ccc(F)cc2)s1)c1ccco1
→ -7.7%	6.6%	1.8	-0.6%
12) CCOC(=O)c1sc(Nc2ccc(C)cc2C)nc1C
→ -21.5%	4.0%	-7.5	14.2%
13) Cc1ccc(CNC(=O)c2ccc(Cl)cc2[N+](=O)[O-])cc1
→ -7.3%	0.6%	-7.2	6.4%
14) CCOc1ccc(Nc2nc(Cc3nnc(SCC(=O)NCc4ccco4)n3CC)cs2)cc1
→ 5.3%	-0.4%	-1.5	-5.3%
15) Cn1nc(C(=O)NCc2ccccc2)c2ccccc2c1=O
→ -3.0%	-1.2%	-6.5	-4.6%
16) COc1ccc2nc(N3CCCCC3)c(/C=C3\SC(=S)NC3=O)cc2c1
→ -3.1%	16.5%	-1.6	6.9%
17) CCOc1ccc(CN2CCN(Cc3c[nH]c4ccccc34)CC2)cc1
→ 4.6%	-0.9%	.	5.9%
18) CCOc1ccc(N2C(=O)CN(CC(=O)OC)C2=S)cc1
→ -2.4%	-1.8%	-1.1	13.0%
19) COc1ccc(-c2cc(-c3ccc(Br)cc3)nc3ncnn23)cc1OC
→ -4.2%	?	2.0	-28.2%
20) Cc1ccc(S(=O)(=O)/N=C(/NC(=S)Nc2cccc(C)c2)c2ccccc2)cc1
→ -45.2%	-1.9%	0.2	-19.9%
21) CN1CCC(Oc2ccccc2Sc2ccc(C(F)(F)F)cc2)CC1
→ 28.3%	-1.6%	-6.1	1.4%
22) O=C(Nc1c2n(c(=S)n(-c3ccccc3)c1=O)CCCCC2)c1ccccc1
→ -7.7%	-4.1%	4.3	-1.0%
23) CSc1ccc(CN2CCC(Oc3cccc(C(=O)N4CCCC4)c3)CC2)cc1
→ 6.2%	-0.9%	.	5.9%
24) NC(=O)N/N=C/C=C/c1ccc(F)cc1
→ -15.1%	-0.4%	-7.6	-1.5%
25) O=C(CCCCC(=O)NCCCc1ccccc1)NCCCc1ccccc1
→ 4.8%	-3.1%	.	0.3%
26) O=C1c2ccccc2CCC1C(O)c1ccccn1 (centres undefined)
→ -17.7%	0.0%	0.4	-13.1%
27) O=C(O)CC1S/C(=N/N=C/c2ccc(-c3ccccc3[N+](=O)[O-])o2)NC1=O (centres undefined)
→ -1.0%	0.4%	-8.7	-24.3%
28) O=C(c1cccc(F)c1)N1CCN(c2cccc(Cl)c2)CC1
→ 21.5%	4.3%	1.0	6.0%
29) CC(=O)c1c(O)c2ccccc2n(C)c1=O
→ 3.7%	-3.1%	-4.0	-25.6%
30) Cc1ccc(-c2nc(-c3ccncc3)no2)cc1Cl
→ -35.0%	?	.	-15.7%

Single records (already shown). Screens in order: miR-21 FLuc | Rango-impB inh | GLA inh pH 4.5 | Rango release inh
CCOc1ccc(N2C(=O)CN(CC(=O)OC)C2=S)cc1 across the screens: -2.4% | -1.8% | -1.1 | 13.0%
Cc1cccn2cc(CSc3nnc(Nc4ccc(C(C)C)cc4)s3)nc12 across the screens: -19.1% | 0.3% | -1.6 | 4.0%

(listing goes on)
Below each SMILES: miR-21 FLuc	Rango-impB inh	GLA inh pH 4.5	Rango release inh
31) Cc1ccc(S(=O)(=O)N(C)Cc2cc3cc(C)ccc3[nH]c2=O)cc1
→ -6.2%	-0.8%	.	-2.8%
32) Cc1[nH]nc(SCC(=O)Nc2ccc(C#N)cc2)c1[N+](=O)[O-]
→ -17.5%	-0.6%	-3.6	0.1%
33) COc1cccc(C(O)c2nc3ccccc3n2C(C)C)c1OC (centres undefined)
→ 3.9%	?	.	-1.1%
34) CC(=O)c1ccc(S(=O)(=O)Nc2cc3c(cc2C(C)=O)OCO3)cc1
→ 3.8%	1.8%	-3.4	6.5%
35) COC(=O)C1=C(C)N(Cc2ccccc2)C(=O)N[C@H]1c1cccs1
→ 9.4%	0.2%	-7.7&-2.9	-6.4%
36) Cc1cc(=O)oc2cc(NC(=O)c3cccc(Br)c3)ccc12
→ -11.7%	7.4%	.	14.9%
37) COc1cccc(C(CNC(=O)C(c2ccccc2)c2ccccc2)N(C)C)c1 (centres undefined)
→ -4.7%	0.1%	.	9.5%
38) CCOc1ccc(NC(=O)c2ccccc2C(=O)c2ccccc2)cc1OCC
→ 4.6%	-1.9%	.	2.1%
39) CSc1nc(-c2ccco2)cc(C(F)(F)F)c1C#N
→ -6.0%	4.0%	9.0	-9.6%
40) Cc1ccc(NC(=O)CCOc2ccccc2)c(C)c1
→ -17.9%	5.0%	.	13.3%
41) CN(C)S(=O)(=O)c1ccc(S(=O)(=O)N(Cc2ccco2)Cc2ccccc2Cl)cc1
→ -2.4%	0.2%	-7.1	-1.0%
42) CCOc1ccc(CN(C)C(=O)c2cccnc2SC)cc1OC
→ -3.9%	4.6%	-0.2	13.0%
43) Cc1cc(C(=O)COC(=O)CNC(=O)c2ccco2)c(C)n1Cc1ccco1
→ -4.1%	-0.3%	1.2	15.3%
44) CC1=Nc2ccc(C)cc2/C1=C/c1c(N)n2c(S(=O)(=O)C(C)C)nsc2nc1=O
→ 0.0%	?	-10.1	?
45) O=C(Nc1ccccc1C(F)(F)F)N1CCCC1c1cccnc1 (centres undefined)
→ 1.8%	0.8%	-11.6	9.0%
46) Cc1cccn2c(=O)c3cc(C(=O)NCCN4CCOCC4)c(=N)n(Cc4ccc(F)cc4)c3nc12
→ 5.2%	?	.	?
47) O=C(N/N=C/c1ccco1)C1CC1
→ -0.9%	-3.0%	3.4	8.7%
48) O=C(Cn1c(=O)oc2cc(S(=O)(=O)N3CCCCC3)ccc21)N1CCc2ccccc2C1
→ -0.6%	1.2%	-2.0	10.4%
49) CCc1cccc(CC)c1NC(=O)C1CN(S(=O)(=O)c2ccccc2)CCN1S(=O)(=O)c1ccccc1 (centres undefined)
→ -0.3%	-1.8%	-2.6	-17.8%
50) CCOC(=O)c1c(C)nn(Cc2cccc(Cl)c2)c1N
→ -5.9%	4.3%	-0.9	-3.2%
51) C#CCC(NC(=O)c1ccc(C#N)cc1)C(=O)NCCC (centres undefined)
→ .	-1.0%	.	37.7%
52) Cc1cc(NC(=O)c2cc(-c3ccncc3)nc3ccccc23)ccc1Br
→ .	-1.3%	.	-2.5%
53) O=C(CSc1nc2ccsc2c(=O)n1-c1ccccc1)N1CCCC1
→ -8.9%	8.4%	1.1	5.8%
54) COCCCN1CC(=O)N2C(c3cccc(C)c3)c3[nH]c4ccccc4c3C[C@H]2C1=O (some centres undefined)
→ 2.4%	0.3%	.	-13.6%
55) CCN(c1ccccc1)c1nc2ccsc2c(=O)s1
→ -49.5%	3.9%	-0.6	-4.6%
56) O=C(CSc1nnc(COc2ccccc2F)n1-c1ccccc1)NC1CCS(=O)(=O)C1 (centres undefined)
→ -1.1%	-4.4%	2.4	10.0%
57) O=C(c1cc(S(=O)(=O)N2CCOCC2)ccc1Cl)N1CCCCC1CO (centres undefined)
→ .	0.2%	.	8.6%
58) Cc1cccc(-c2noc(CCC(=O)NC3CCCC3)n2)c1
→ -17.0%	3.2%	.	-8.7%
59) O=C(CC1C(=O)NCCN1Cc1ccc(-c2ccccc2)cc1)NCCCn1ccnc1 (centres undefined)
→ -1.4%	0.3%	0.1	3.0%
60) COc1ccccc1C/C(N)=N/OC(=O)c1ccc(C)c([N+](=O)[O-])c1
→ -17.2%	-0.7%	-16.4	-4.6%
61) COc1ccc(NC(=O)CC2C(=O)NCCN2C(=O)c2ccc(N(C)C)cc2)cc1 (centres undefined)
→ -4.9%	?	-3.4	-3.1%
62) Cc1ccc(-c2nsc3c(N4CCC(C(N)=O)CC4)ncnc23)cc1
→ -45.2%	-0.8%	1.0	3.9%
63) O=C(O)c1cccc2c1Cc1cc(Cl)ccc1-2
→ .	-3.2%	.	-2.1%
64) Cc1nc(C)c(N)c(=O)[nH]1
→ -2.3%	-0.6%	1.9	10.7%
65) CCOc1ccc(S(=O)(=O)N2CCN(C(=S)NC3CC3)CC2)cc1
→ 0.9%	-2.6%	-26.9	-0.8%
66) CC(C)NC(=O)c1onc(CSc2ccccn2)c1C(=O)NC(C)C
→ 0.6%	1.2%	-10.0	7.8%
67) Cc1c(-c2ccccc2)nc(N)c(C#N)c1-c1cccnc1
→ 4.5%	0.0%	-1.5	-9.8%
68) O=C1CC(c2ccccc2)CC(O)=C1C=NC1CCCC1 (centres undefined)
→ -17.8%	1.7%	3.5	1.8%
69) COc1ccc(-c2cccc([C@H]3[C@@H]4C=CCC[C@@]4(C)C(=O)N3Cc3ccccc3)c2)cc1
→ 5.1%	2.1%	-8.3	3.3%
70) CCCn1c(N)c(C(=O)CN(C)CC(=O)Nc2cccc(F)c2)c(=O)[nH]c1=O
→ .	-2.7%	.	-12.5%
71) Cc1ccc(C(=O)NCc2ccccn2)cc1S(=O)(=O)N1CCCCC1
→ -0.6%	-1.8%	.	-3.5%
72) Cc1csc2ncc(C(=O)NCCC(c3ccccc3)c3ccccc3)c(=O)n12
→ -6.0%	3.6%	-5.3	-2.3%
73) COc1ccc(C(=O)NC2CC(C)(C)Cc3c2cnn3-c2ccccc2)c(OC)c1 (centres undefined)
→ 0.0%	-0.3%	.	-3.5%
74) Cc1nn(Cc2ccc(Cl)cc2)c(C)c1N
→ -9.9%	-0.1%	-6.6	-0.6%
75) Cc1cccc(OCCNC(=O)c2cncc(Br)c2)c1
→ -16.6%	5.3%	0.4	1.5%
76) CN(C(=O)c1cc(-c2ccc3c(c2)OCO3)on1)c1ccccc1
→ -67.1%	-0.6%	.	13.5%
77) CCOc1cc(C(=S)N2CCC(O)CC2)ccc1OS(=O)(=O)c1ccc(Br)cc1
→ 13.3%	-1.3%	-13.9	3.6%
78) COc1ccc(NC(=O)CN(Cc2ccccc2)S(C)(=O)=O)c(OC)c1
→ -4.9%	1.9%	-4.4	12.5%
79) N#Cc1ccc(OCC(=O)NCCCn2ccnc2)cc1
→ .	-1.8%	.	8.2%
80) CCn1cc(/C=C(\NC(=O)c2ccccc2Cl)C(=O)NCCN2CCOCC2)c2ccccc21
→ -1.3%	2.4%	.	-7.3%
81) CN(Cc1ccc(Cl)c(Cl)c1)C(=O)C1=CC=CN2CCS(=O)(=O)N=C12
→ .	5.1%	.	-0.3%
82) NC(=O)c1nn(-c2ccccc2)nc1NC(=O)CN1CCOCC1
→ 2.0%	5.5%	9.7	-14.1%
83) CCN1CCN(c2nc3ccccc3nc2C(C#N)S(=O)(=O)c2ccc(C)c(C)c2)CC1 (centres undefined)
→ 10.3%	?	-1.0	?
84) CCCCn1c(N)c(N(CC(C)C)C(=O)C2CCN(S(=O)(=O)c3ccc(F)cc3)CC2)c(=O)[nH]c1=O
→ 2.7%	-1.4%	.	2.1%
85) COc1ccc(N(CC(=O)NCc2ccncc2)S(=O)(=O)c2ccc(C)c([N+](=O)[O-])c2)cc1
→ 3.4%	-6.5%	0.0	-2.1%
